AF4-AF9 inh – inhibitors of AF4 peptide binding to AF9, primary screen, biochemical, AlphaScreen, biotin-AF4 peptide, FLAG-AF9, single point. inhibition, % at 10 µM. hit rate 0.47% among 350,000. AID 651704, 2012;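 active = every replicate reaching a set inhibition limit, whatever the replicate mean, cut at about 25% in these data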;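 note: 0% = plate neutral control median and 100% = total signal loss; the record names both 10 and 1 µM as test concentration; the first replicate is given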
Target sequence (P42568 whole entry, looked up): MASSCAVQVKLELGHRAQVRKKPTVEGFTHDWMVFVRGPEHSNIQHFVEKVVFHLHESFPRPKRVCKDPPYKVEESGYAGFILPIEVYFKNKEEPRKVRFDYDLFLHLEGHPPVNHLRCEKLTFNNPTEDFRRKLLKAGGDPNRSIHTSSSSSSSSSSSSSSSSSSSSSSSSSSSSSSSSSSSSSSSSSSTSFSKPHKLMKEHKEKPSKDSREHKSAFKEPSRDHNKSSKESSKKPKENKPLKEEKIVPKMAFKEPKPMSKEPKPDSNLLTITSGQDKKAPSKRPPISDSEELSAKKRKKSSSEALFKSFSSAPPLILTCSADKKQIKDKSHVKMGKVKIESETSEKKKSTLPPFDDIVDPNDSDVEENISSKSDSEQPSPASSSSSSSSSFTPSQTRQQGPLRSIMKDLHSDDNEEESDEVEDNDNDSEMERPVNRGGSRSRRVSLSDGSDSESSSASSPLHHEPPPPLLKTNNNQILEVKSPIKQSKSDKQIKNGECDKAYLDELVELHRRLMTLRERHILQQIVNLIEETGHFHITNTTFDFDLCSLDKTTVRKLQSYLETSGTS
* = called active by the depositor; & = joins results of further samples. These rows are one share of the data, so the mix of outcomes need not match the whole.

SMILES	AF4-AF9 inh
C[C@H]1CCCCO[C@H](CN(C)C)[C@@H](C)CN([C@@H](C)CO)C(=O)c2cc(NS(C)(=O)=O)ccc2O1	-7.5
Cc1cccc(C)c1NC(=O)C1(C)CSCC(=O)N1Cc1cccc(F)c1 (stereo not given)	0.1
COc1ccc(NC(=O)C2Cc3c(-c4cccc(C(C)=O)c4)ccnc3O2)cn1 (stereo not given)	-5.6
N#Cc1ccc(-c2ccc(C3[C@H]4CNC[C@@H]3N4C(=O)Nc3ccc(F)cc3)cc2)cc1 (stereo not given in full)	-1.7
CCOC(=O)[C@]12CCCC=C1N(Cc1ccc(Cl)cc1Cl)C(=O)[C@H](CC(=O)N1CCN(C(=O)c3ccco3)CC1)C2	7.3
CC(C)NC(=O)N1[C@H](CO)[C@@H]2c3ccccc3N(C(=O)C3CCC3)C[C@@H]21	1.0
C[C@H](CO)N1C[C@H](C)[C@@H](CN(C)Cc2ccncc2)Oc2ncc(-c3cccc(C#N)c3)cc2C1=O	-1.2
COc1ccc(-c2ccc([C@H]3[C@@H](C#N)N(C(=O)NC4CCCCC4)[C@H]3CO)cc2)cc1	-0.8
C[C@@H]1CN([C@H](C)CO)C(=O)Cc2cc(NC(=O)Nc3ccc4c(c3)OCO4)ccc2O[C@@H]1CN(C)S(C)(=O)=O	0.9
COc1ccccc1S(=O)(=O)N(C)C[C@@H]1Oc2cc(C#CCC(C)C)ccc2S(=O)(=O)N([C@@H](C)CO)C[C@@H]1C	4.1
COc1ccc(NC(=O)Nc2ccc3c(c2)[C@@H]2C[C@H](CC(=O)NCc4ccccc4F)O[C@@H](CO)[C@@H]2O3)cc1	-0.8
C[C@@H]1CN([C@@H](C)CO)C(=O)c2cccc(NS(=O)(=O)c3ccc(F)cc3)c2O[C@H]1CN(C)S(=O)(=O)c1ccc(F)cc1	-1.1
Cc1noc(C)c1NC(=O)Nc1ccc2c(c1)C(=O)N([C@@H](C)CO)C[C@@H](C)[C@H](CN(C)Cc1ccccc1)OCCCC[C@H](C)O2	-4.0
C[C@@H]1CN([C@@H](C)CO)C(=O)Cc2cc(NC(=O)Nc3ccc4c(c3)OCO4)ccc2O[C@H]1CN(C)C	5.4
CC(O)(c1cccc(F)c1)c1nc(-c2ccc3ccccc3c2)cs1 (stereo not given)	-0.6
N#Cc1cccc(-c2csc(C(O)(c3ccccc3)C(F)(F)F)n2)c1 (stereo not given)	-0.9
Cc1cc(Br)cn2c(Cc3ccccc3)c(-c3cccc(Br)c3)nc12	-1.4
COCC#Cc1cnc2c(c1)C(=O)N([C@@H](C)CO)C[C@@H](C)[C@@H](CN(C)S(=O)(=O)c1cccc(OC)c1)O2	-1.9
COc1ccc2c3c([nH]c2c1)[C@H](CO)N(C(=O)CN(C)C)CC31CCN(CC2CC2)CC1	11
C[C@@H]1CN([C@H](C)CO)C(=O)CCCn2nncc2CO[C@H]1CN(C)Cc1ccc(C(F)(F)F)cc1	1.8&-0.2
CO[C@@H]1CC[C@@H]2CCOc3c(C#N)cccc3C(=O)N(C)CCCC(=O)N(C)C[C@H]1O2	-3.0
CCCCN(C=O)c1c(CC)nc2ccc(C(=O)NCCN(C)C)cn12	5.4
CCCNC(=O)N1CC2(CN(Cc3cccc(OC)c3)C2)c2c([nH]c3cc(OC)ccc23)[C@H]1CO	36*
Cc1noc(C)c1NC(=O)Nc1ccc2c(c1)CC(=O)N([C@H](C)CO)C[C@@H](C)[C@H](CN(C)S(=O)(=O)c1ccc(F)cc1)O2	-1.2
CN(C)CC(=O)N[C@H]1C=C[C@H](CC(=O)NCc2ccccc2F)O[C@@H]1CO	-3.6
COc1cccc(NC(=O)N2C[C@H](O)COC[C@H]3O[C@@H](CC(=O)NC4CCC4)CC[C@@H]32)c1	-6.8
C[C@H](NS(=O)(=O)c1ccc(Cl)cc1)C(=O)OCC(=O)Nc1cc(S(=O)(=O)N2CCOCC2)ccc1Cl	0.4
O=C(Nc1ccc2c(c1)OCO2)N[C@H]1CC[C@@H](CCNC(=O)C2CC2)O[C@H]1CO	-4.9
C[C@H]1CN([C@@H](C)CO)C(=O)c2cccc(NS(=O)(=O)c3ccc(F)cc3)c2O[C@@H]1CN(C)C(=O)Nc1ccccc1	-2.2
COc1cccc(-c2cnc3c(c2)C(=O)N([C@@H](C)CO)C[C@H](C)[C@@H](CN(C)C(=O)CN(C)C)O3)c1	-12

Part of the list above in another layout:
SMILES | AF4-AF9 inh
CO[C@@H]1CC[C@@H]2CCOc3c(C#N)cccc3C(=O)N(C)CCCC(=O)N(C)C[C@H]1O2 | -3.0
CCCCN(C=O)c1c(CC)nc2ccc(C(=O)NCCN(C)C)cn12 | 5.4
CCCNC(=O)N1CC2(CN(Cc3cccc(OC)c3)C2)c2c([nH]c3cc(OC)ccc23)[C@H]1CO | 36*
Cc1noc(C)c1NC(=O)Nc1ccc2c(c1)CC(=O)N([C@H](C)CO)C[C@@H](C)[C@H](CN(C)S(=O)(=O)c1ccc(F)cc1)O2 | -1.2
CN(C)CC(=O)N[C@H]1C=C[C@H](CC(=O)NCc2ccccc2F)O[C@@H]1CO | -3.6
COc1cccc(NC(=O)N2C[C@H](O)COC[C@H]3O[C@@H](CC(=O)NC4CCC4)CC[C@@H]32)c1 | -6.8
C[C@H](NS(=O)(=O)c1ccc(Cl)cc1)C(=O)OCC(=O)Nc1cc(S(=O)(=O)N2CCOCC2)ccc1Cl | 0.4
O=C(Nc1ccc2c(c1)OCO2)N[C@H]1CC[C@@H](CCNC(=O)C2CC2)O[C@H]1CO | -4.9
C[C@H]1CN([C@@H](C)CO)C(=O)c2cccc(NS(=O)(=O)c3ccc(F)cc3)c2O[C@@H]1CN(C)C(=O)Nc1ccccc1 | -2.2
COc1cccc(-c2cnc3c(c2)C(=O)N([C@@H](C)CO)C[C@H](C)[C@@H](CN(C)C(=O)CN(C)C)O3)c1 | -12

Additional records.
SMILES	AF4-AF9 inh
O=C(NCc1ccccc1)[C@H]1CCCN1C(=O)[C@H]1CCCN1C(=O)c1cccc(Cl)c1	-3.6
C[C@H](O)C#Cc1ccc([C@@H]2[C@H](CO)N3CCCCN(S(=O)(=O)Cc4ccccc4)C[C@@H]23)cc1	3.2
COc1ccc(S(=O)(=O)N(C)C[C@@H]2Oc3cc(C#CC4CC4)ccc3S(=O)(=O)N([C@H](C)CO)C[C@@H]2C)cc1	0.6
CO[C@H]1CN(C)C(=O)c2ccc(NC(=O)c3cnccn3)cc2OC[C@H](C)N(CC2CC2)C[C@@H]1C	-0.7
Cc1ccc(S(=O)(=O)N(C)C[C@H]2Oc3c(NC(=O)c4cnccn4)cccc3C(=O)N([C@H](C)CO)C[C@H]2C)cc1	1.1
C[C@H](CO)N1C[C@H](C)[C@H](CN(C)S(=O)(=O)c2ccc(Cl)cc2)OCCCC[C@H](C)Oc2ccc(NC(=O)Nc3ccccc3)cc2C1=O	-3.9
CC1=C(C(=O)N(C)C)CC(CC(=O)NCc2cccs2)C(=O)N1CCC1=CCCCC1 (stereo not given)	-0.3
COc1ccc(-c2ccc(C3[C@H]4CNC[C@@H]3N4S(=O)(=O)c3ccc(OC)cc3)cc2)cc1 (stereo not given in full)	-6.2&-7.4
C[C@@H]1CN([C@H](C)CO)C(=O)Cc2cc(NC(=O)CCCN(C)C)ccc2O[C@H]1CN(C)Cc1ccc(Oc2ccccc2)cc1	13
CC(C)CC#Cc1cnc2c(c1)C(=O)N([C@@H](C)CO)C[C@H](C)[C@@H](CN(C)Cc1ccccc1)O2	4.3
C[C@@H]1CN([C@@H](C)CO)C(=O)CCCn2cc(nn2)CO[C@@H]1CN(C)Cc1ccc(C(=O)Nc2ccccc2N)cc1	4.8
C[C@H]1CN([C@@H](C)CO)C(=O)c2cc(C3=CCCC3)cnc2O[C@@H]1CN(C)C(=O)NC1CCCC1	-24
COc1ccc(S(=O)(=O)Nc2cccc3c2O[C@H](CN(C)C(=O)NC(C)C)[C@@H](C)CN([C@@H](C)CO)C3=O)cc1	-2.3
COCCOC(=O)N1C(=O)[C@@]2(c3cc(C#Cc4ccc(OC)cc4)ccc31)[C@H](c1ccccc1OCCO)N1[C@H](c3ccccc3)[C@H](c3ccccc3)OC(=O)[C@H]1[C@@H]2C(=O)N1CCc2cc(OC)c(OC)cc2C1	-2.3
CN(C)c1ncnc2c1ncn2[C@H]1CN(Cc2ccc(-c3ccccc3)cc2)C[C@@H](CO)O1	1.4
COCCNC(=O)C[C@H]1CC[C@@H]2[C@H](COC[C@H](O)CN2S(=O)(=O)c2ccccc2C)O1	-3.6
Cc1noc(C)c1NC(=O)Nc1ccc2c(c1)C(=O)N([C@H](C)CO)C[C@H](C)[C@H](CN(C)Cc1ccc(C(=O)Nc3ccccc3N)cc1)OCCCC[C@@H](C)O2	-1.6
O=C(CN1CCN(S(=O)(=O)c2ccc3c(c2)OCCO3)CC1)Nc1ccccc1Br	0.0
COc1ccc(S(=O)(=O)N(C)C[C@H]2Oc3ccc(NC(=O)Nc4cccc5ccccc45)cc3CC(=O)N([C@@H](C)CO)C[C@H]2C)cc1	3.8
COCC#Cc1ccc2c(c1)O[C@H](CN(C)CC1CCCC1)[C@@H](C)CN([C@H](C)CO)S2(=O)=O	2.9
CO[C@H]1CN(C)C(=O)c2ccc(NS(=O)(=O)c3cccc(Cl)c3)cc2OC[C@@H](C)NC[C@H]1C	8.1
C[C@@H]1CN([C@@H](C)CO)C(=O)c2cc(NC(=O)CCC(F)(F)F)ccc2O[C@@H](C)CCCCO[C@H]1CN(C)C(=O)NC1CCCCC1	-1.6
N#C[C@H]1[C@@H](c2ccccc2)[C@H](CO)N1C(=O)c1ccccc1F	-1.0
CCCNC(=O)N1C[C@H]2[C@@H](c3ccccc31)[C@@H](CO)N2Cc1ccc(OC)cc1	1.6
COc1ccc(S(=O)(=O)N(C)C[C@@H]2OCCCC[C@H](C)Oc3ccc(NC(=O)Nc4ccc(F)cc4)cc3C(=O)N([C@H](C)CO)C[C@@H]2C)cc1	-0.8
CCCN1C[C@@H](C)[C@@H](OC)CN(C)C(=O)c2ccc(NC(=O)Nc3c(C)noc3C)cc2OC[C@H]1C	-0.8
C[C@@H]1CN([C@@H](C)CO)C(=O)c2cccc(NS(C)(=O)=O)c2O[C@H]1CN(C)C(=O)Nc1ccccc1	-3.4
CN(C)C(=O)C[C@H]1CC[C@@H]2[C@H](COc3ccc(NS(=O)(=O)c4cccc(F)c4)cc3C(=O)N2C)O1	-0.9
COCC#Cc1cnc2c(c1)C(=O)N([C@H](C)CO)C[C@@H](C)[C@H](CN(C)C)O2	-1.6
C[C@@H]1CN([C@H](C)CO)C(=O)c2cccc(NC(=O)C3CCOCC3)c2O[C@H]1CN(C)Cc1ccc(-c2ccccc2)cc1	4.4
CC(C)NC(=O)N[C@H]1CC[C@H](CCNC(=O)C2CC2)O[C@H]1CO	-1.5
CC(=O)c1cccc(NC(=O)CCN2C(=O)C3CC=CCC3C2=O)c1 (stereo not given)	-0.8
Cc1cccc(S(=O)(=O)N2C[C@H](O)COC[C@H]3O[C@@H](CC(=O)Nc4ccccc4)CC[C@@H]32)c1	3.5
O=C(C[C@H]1CC[C@@H]2[C@H](COC[C@H](O)CN2C(=O)Nc2ccc(F)cc2)O1)NCCc1ccccc1	-1.8
CC(C)[C@H](NC(=O)c1ccccc1)C(=O)Nc1ccc2c(c1)OCO2	-17
CC(C)CN(C(=O)COc1ccccc1C(=O)NCc1ccccc1)C1CCS(=O)(=O)C1 (stereo not given)	-2.1
COc1ccccc1-c1ccc2c(c1)O[C@@H](CN(C)C(=O)Nc1ccccc1)[C@@H](C)CN([C@@H](C)CO)S2(=O)=O	0.8
C[C@H](O)C#Cc1cnc2c(c1)C(=O)N([C@H](C)CO)C[C@@H](C)[C@H](CN(C)C(=O)c1ccncc1)O2	-2.8
Cc1noc(C)c1NC(=O)N(C)C[C@@H]1OCc2cn(nn2)CCCC(=O)N([C@@H](C)CO)C[C@H]1C	-2.2&-0.8
CC(C)c1ccc(CC(=O)N2CCC2(C)C(=O)NS(=O)(=O)c2cccc(C#N)c2)cc1 (stereo not given)	-1.2
C[C@@H]1CN([C@@H](C)CO)C(=O)c2cc(NC(=O)NC3CCCCC3)ccc2O[C@@H](C)CCCCO[C@@H]1CN(C)Cc1ccncc1	-2.1
COc1ccc2c3c([nH]c2c1)[C@H](CO)N(C(=O)Nc1ccc(F)cc1)CC31CN(CC2CC2)C1	10
COc1ccc(C#Cc2ccc3c(c2)O[C@@H](CN(C)C(=O)Nc2cccc(OC)c2)[C@H](C)CN([C@H](C)CO)S3(=O)=O)cc1	-3.0
COc1ccc2c3c([nH]c2c1)[C@@H](CO)N(Cc1ccncc1)CC31CN(Cc2ccc(-c3ccccn3)cc2)C1	3.5
C[C@@H]1CN([C@@H](C)CO)C(=O)c2cc(-c3cccc(F)c3)cnc2O[C@H]1CN(C)Cc1ccncc1	-8.3
CC(C)CC#Cc1ccc2c(c1)O[C@H](CN(C)C(=O)c1cnccn1)[C@@H](C)CN([C@@H](C)CO)S2(=O)=O	4.4
COC(=O)C[C@@H]1C[C@@H]2c3cc(NC(=O)c4cccnc4)ccc3O[C@@H]2[C@H](CO)O1	-2.1
O=C(NCc1ccccc1)c1cccc2c(-c3cccnc3)coc12	-0.7
COc1ccc(NC(=O)Nc2cccc3c2O[C@H](CN(C)S(=O)(=O)c2ccc(OC)cc2)[C@H](C)CN([C@@H](C)CO)C3=O)cc1	2.3
COCC(=O)N(C)C[C@@H]1Oc2ncc(C#Cc3ccccc3OC)cc2C(=O)N([C@@H](C)CO)C[C@H]1C	-2.2
CCCCCCN1CCN(C2CN(Cc3cn(CCCCCC)nn3)S(=O)(=O)C2)CC1 (stereo not given)	-0.7
O=C(Cc1ccccn1)N[C@@H]1CC[C@@H](CC(=O)N2CCCCC2)O[C@@H]1CO	-0.4
COc1ccc(NC(=O)Nc2ccc3c(c2)[C@H]2C[C@H](CC(=O)NCc4ccccn4)O[C@H](CO)[C@H]2O3)cc1	-3.9
